# From PubChem BioAssay
# Cruzain inh noDet – cruzain (T. cruzi) inhibition without detergent. P25779. Potency, µM, for the others: max response, negative = inhibition, hits mostly inhibitors. hit rate 2.3% among 200,000. AID 1476. purified cruzain, Z-FR-AMC fluorescence, no detergent; active = well fitted curve in the direction sought with a large enough effect; inconclusive = small, poorly fitted or top-dose-only effect, or another doubt; inactive = no such curve, though single readings can be large; an effect the other way counts as inactive or inconclusive;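 note: plate controls were enzyme without inhibitor for no effect and buffer without enzyme for full effect; nearly all actives have a fitted effect of over 40% in size; top concentration of the series not given in the record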
# Target sequence (P25779 123-467 limits assumed): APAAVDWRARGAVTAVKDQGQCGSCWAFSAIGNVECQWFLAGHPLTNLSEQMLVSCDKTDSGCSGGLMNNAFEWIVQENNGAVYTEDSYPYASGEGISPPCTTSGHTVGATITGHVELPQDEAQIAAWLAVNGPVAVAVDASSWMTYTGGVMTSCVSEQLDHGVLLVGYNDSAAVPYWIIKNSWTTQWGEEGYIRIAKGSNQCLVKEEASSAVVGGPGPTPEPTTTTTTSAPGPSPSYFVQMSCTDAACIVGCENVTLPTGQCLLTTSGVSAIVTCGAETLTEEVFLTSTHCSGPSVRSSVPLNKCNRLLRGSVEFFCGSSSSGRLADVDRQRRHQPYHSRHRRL
#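 Detergent-free condition (0.00005% Triton X-100) in acetate buffer pH 5.5 with DTT. 1.5 nM enzyme and compound were pre-mixed 15 min, then 2 uM Z-FR-AMC substrate added; reaction progress from fluorescence change between first and third reads (60 s).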
# StopGo reporter – FMDV 2A StopGo reporter, luciferase signal; human cells with a luciferase reporter of 2A StopGo recoding; control for the full effect not named in the record; Potency, µM (titrated, usually from 57.9 µM), inactives show at the highest dose signal change, negative = less light; hit rate 1.2% among 410,000; active = well fitted falling curve with a large enough effect; inconclusive = small, poorly fitted or top-dose-only effect; inactive = no such curve, though single readings can be large or run the other way; tested in HEK293T cells; note: % is set by controls: 0 for no effect and ±100 for the full control effect; nearly all actives have a fitted effect of over 45% in size; luciferase light after 4 h
# RE007 growth inh – less growth of the S. pombe RE007 Vpr strain | AID 651644 | S. pombe RE007 Vpr strain, BacTiter-Glo ATP luminescence, 24 h; control for the full effect not named in the record | Potency, µM (series often up to 92.2 µM), without a hit: at the top dose activity change, negative = less growth | hit rate 0.21% among 360,000; active = well fitted falling curve with a large enough effect; inconclusive = small, poorly fitted or top-dose-only effect; inactive = no such curve, though single readings can be large or run the other way;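 note: % is set by controls: 0 for no effect and ±100 for the full control effect; nearly all actives have a fitted effect of over 50% in size; the assay follows cell death caused by Vpr and the record does not say whether a fall means rescue or toxicity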
#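 Fission yeast RE007 carrying one integrated HIV-1 vpr copy, seeded at OD 0.01 in PMG+AL medium with 23 nL pinned compound. Grown 24 h at 30 degrees; viability read by BacTiter-Glo luminescence after 5 min.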
# NS1 inh – influenza NS1 inhibition | hit rate 0.4% among 270,000 | AID 2326 | S. cerevisiae slowed by influenza A NS1, growth recovery by OD600 | Potency, µM (top dose mostly 46.1 µM), without a hit: top-dose activity, positive = more growth; note: actives are rising curves; nearly all actives have a fitted effect of over 50% in size
#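 Compounds were scored for reversing the slow growth caused by influenza A NS1 in S. cerevisiae, measured by optical density at 600 nm. Assay medium contained 2% galactose at pH 6.0; NS1-free yeast of the same strain were the positive control.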
# Cruzain Triton – inhibitors of Trypanosoma cruzi cruzain with detergent. Potency, µM, without a hit: max response, negative = inhibition, usual class: inhibitors. hit rate 0.43% among 200,000. purified cruzain, Z-FR-AMC fluorescence, 0.01% Triton; active = well fitted curve in the direction sought with a large enough effect; inconclusive = small, poorly fitted or top-dose-only effect, or another doubt; inactive = no such curve, though single readings can be large; an effect the other way counts as inactive or inconclusive;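 note: plate controls were neutral wells for no effect and buffer without enzyme for full effect; nearly all actives have a fitted effect of over 40% in size; top concentration of the series not given in the record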
#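 Cruzain (1.5 nM) preincubated 15 min at RT with compound in 100 mM sodium acetate pH 5.5, 5 mM DTT, 0.01% Triton X-100. Reaction started with 2 uM Z-FR-AMC; AMC fluorescence (ex 360/em 450 nm) change over 60 s gave rate.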
# Marburg entry inh – inhibitors of Marburg virus binding or cell entry; hit rate 1.8% among 300,000; Potency, µM (doses to about 37.8 µM), without a hit: at the top dose activity change, negative = inhibition, usual class: inhibitors; Marburg virus pseudotyped entry inhibition, cell reporter; control for the full effect not named in the record; about a third of the inactives were read at about 46 µM; active = well fitted inhibition curve with a large enough effect; inconclusive = small, poorly fitted or top-dose-only effect, or effect the other way; inactive = flat fitted curve, though single readings scatter; tested in HEK293 cells; about a fifth of its hits are not listed in these tables; note: % is set by controls: 0 for no effect and ±100 for the full control effect; luciferase read-out
# SARS PLP yeast – inhibitors of SARS-CoV papain-like protease in yeast. AID 485353. Potency, µM (top dose mostly 32.9 µM), without a hit: at the top dose activity, positive = growth rescue. hit rate 0.19% among 330,000. S. cerevisiae expressing SARS-CoV PLpro, growth rescue; control for the full effect not named in the record; note: 0% is about no effect; nearly all actives have a fitted effect of over 55% in size; growth read by luminescence after 48 h
# Lassa entry inh – blocks Lassa virus binding to or entry into cells | Lassa virus pseudotype entry inhibition, cell reporter; control for the full effect not named in the record | Potency, µM (top dose mostly 37.9 µM), without a hit: top-dose activity change, negative = inhibition, most hits filed as inhibitors | hit rate 1.2% among 300,000 | AID 540256; active means well fitted inhibition curve with a large enough effect; inconclusive means small, poorly fitted or top-dose-only effect, or effect the other way; inactive means flat fitted curve, though single readings scatter; tested in HEK293 cells; note: % is set by controls: 0 for no effect and ±100 for the full control effect; nearly all actives have a fitted effect of over 50% in size; luciferase read-out
# An asterisk follows results filed as active; ? = inconclusive; . = no result given; & = joins results of further samples; [ ] = another dose, or the depositor's remark. Unless noted, calls come from the whole dose curve; as a rule, active means well fitted rising curve with a large enough effect; inconclusive means small, poorly fitted or top-dose-only effect; inactive means no such curve, though single readings can be large or run the other way. Potency is the fitted concentration of half-maximal effect. No enrichment for hits; overall some 4.5% were active at least once.
SMILES,Cruzain inh noDet,StopGo reporter,RE007 growth inh,NS1 inh,Cruzain Triton,Marburg entry inh,SARS PLP yeast,Lassa entry inh
CC(C)(C)c1ccc(C(=O)NCC(=O)N2CCNC(=O)C2)cc1,.,12.3%,8.2%,1.1%,.,11.7%[46.1 µM],-1.8%,5.1%[46.1 µM]
COc1cccc(-c2cc(=O)c3ccccc3o2)c1N,2.8%&-6.6%,21.8%[97.4 µM],.,-24.6%,-3.8%&-5.8%,?,.,?
Cn1c(=O)cc(SCC(=O)N2CCCC2)c2cc(Cl)ccc21,-6.4%,1.9%,-3.0%[3.69 µM],?,-0.5%,-19.1%,-1.3%,-21.6%
Cc1ccccc1NC(=O)c1cc(N)ccc1N1CCCCC1,-12.1%,-26.6%,13.3%,-1.2%,2.0%,-6.2%,-3.7%,-5.2%
CC(C)C(NC(=O)OCc1ccccc1)C(=O)OCC(=O)N1C(C)CCCC1C (configuration not stated),15.5%,20.0%,28.8%,-44.6%,-0.7%,11.4%,-17.0%,-13.9%
Cn1c(=O)c(C(=O)NC2CCCCCC2)c(O)c2ccccc21,.,68.2%[activator],10.6%,12.8%,.,.,11.5%,.
Cc1ccc([N+](=O)[O-])cc1N=C(c1ccc([N+](=O)[O-])cc1)N1CCOCC1,1.2%,-9.4%,-7.9%,6.3%,-8.0%,-8.0%,-4.1%,-1.4%
CC1CCc2c(sc(NC(=O)c3cccn3C)c2C(N)=O)C1 (configuration not stated),.,2.9%,-9.8%,.,.,6.9%[46.1 µM],-20.4%,?
COc1ccc(CN2C(=O)c3cccnc3C2=O)cc1S(=O)(=O)NCc1ccccc1,.,34.9%[activator],13.3%,14.7%,.,.,6.1%,.
COc1cc2c(cc1NC(=O)C(F)(F)F)-c1ccc(NC(=O)C(F)(F)F)cc1C2,.,19.3%,0.8%,.,.,0.8%,.,?
CCCC[n+]1ccn(-c2nc3ccccc3nc2[N-]S(=O)(=O)c2ccc(C)cc2)c1,?,.,-8.5%,9.5%,2.1%,-19.4%,-1.0%,-1.8%
CCOc1ccc(NC(=O)Cn2cc(S(=O)(=O)c3ccc(C)cc3)c(=O)c3cc(F)ccc32)cc1,15.3%,8.4%,.,.,-1.9%,1.9%[46.1 µM],.,-21.7%[46.1 µM]
CCOC(=O)/C(C#N)=C/c1ccc(OC(=O)c2ccco2)c(OCC)c1,?,7.4%,-7.1%,-24.7%,-4.4%,?,-2.8%,12.8%
COc1cc(C2CC(=O)Nc3c2c(C)nn3-c2nc(C)cc(C)n2)cc(OC)c1O (configuration not stated),-15.3%,8.1%,.,.,-0.9%,0.5%[46.1 µM],.,3.9%[46.1 µM]
Cc1ccc(NC(=O)CSc2ccc(-c3ccccn3)nn2)cc1,.,0.6%,3.3%,.,.,-29.3%[46.1 µM],?,?
C=CCN1C(c2ccccc2)=CS/C1=C(\C#N)c1nnc2n1CCCCC2,-2.3%,.,11.2%,1.0%,-3.4%,?,5.9%,-48.0%
CC(=O)Nc1ccc(C(=O)Nc2nnc(CCc3ccccc3)s2)cc1,.,-7.4%,0.2%,15.4%,.,.,-6.9%,.
O=C1OCCN1C(=O)[C@H]1[C@H](c2ccc([N+](=O)[O-])cc2)C(c2cccc(Cl)c2)=NN1c1ccccc1,11.2µM*,-23.1%,-9.7%,22.4µM*,0.0%&-5.6%,-36.4%,5.5%,?
Cc1ccc(C(=O)Nc2cccc3cccnc23)cc1C,.,58.5%[activator],-25.5%,-24.6%,.,-1.1%,-2.6%,?
O=C(c1ccco1)N1CCN(C(=O)c2cn(-c3ccccc3)nc2-c2ccc(F)cc2)CC1,.,41.3%[activator],-11.6%,.,.,?,4.3%,-0.8%
O=C(Nc1ccccn1)c1cccc(S(=O)(=O)N2CCCC2)c1,.,5.8%,17.2%,0.6%,.,14.6%,2.9%,-0.7%
Cc1ccc2cc(/C=N/NC(=O)[C@@H]3CCCN3)c(Cl)nc2c1,.,30.5%[activator],2.5%,0.0%,.,6.3%,-1.6%,28.7%
Cc1ccc(O)c(NC(=S)NC(=O)/C=C/c2ccco2)c1,.,16.9%,5.3%,12.6%,.,?,-1.3%,?
CCOc1c2ccc(C(=O)NCc3ccco3)cc2nn1CCOC,10.7%,-5.5%,-0.8%,2.2%,5.2%,.,1.1%,.
O=C(CSc1ncn[nH]1)Nc1c(F)cc(F)cc1Br,0.5%,-8.2%,17.3%,-1.9%,-0.7%,17.4%,-0.5%,2.3%
CCCCN1C(=O)/C(=C2/Sc3ccc(OC)cc3N2CC)SC1=S,.,-5.1%,-13.3%,-0.5%,.,.,0.7%,.
COc1ccc([C@@]2(O)c3c(ccc(CC=C(C)C)c3O)NC(=O)[C@@H]2OC)cc1,.,-24.7%,-15.5%,10.9%,.,.,-0.2%,.
CC(=O)Nc1ccc(NC(=O)c2ccc(NC(=O)c3ccccc3)cc2)cc1,.,-2.8%,7.3%,7.1%,.,.,?,.
Cc1cccc(CNS(=O)(=O)c2ccc(-c3cnc(C4CC4)o3)cc2)c1,3.9%,-15.3%&-22.6%,-13.2%,-6.3%,-1.6%,.,1.0%,?
COc1ccc(C(CNC(=O)c2ccc(S(=O)(=O)N3CC(C)CC(C)C3)cc2)N(C)C)cc1 (configuration not stated),.,-6.1%,18.2%,.,.,?,8.6%,?
CCOC(=O)C1CCCN(C(=O)/C=C/c2ccccc2[N+](=O)[O-])C1 (configuration not stated),9.5%,-19.9%,-1.1%,16.3%,-2.6%,-3.2%,9.6%,-17.2%
CC(C)NC1CS(=O)(=O)CC1O (configuration not stated),1.2%,.,-0.8%,-6.2%,3.2%,-26.6%,-7.8%,0.9%
O=C(Cn1nc(C(=O)O)c2ccccc2c1=O)NCCC1=CCCCC1,?,1.4%,-13.5%,-2.5%,0.3%,1.6%,-0.4%,22.2%
COc1ccc(Cl)cc1NC(=O)CS(=O)(=O)c1cccc2nsnc12,-8.5%,-17.8%,-6.6%,-7.3%,-0.4%,1.8%,-1.2%,-9.6%
O=C(C(Cc1ccccc1)NS(=O)(=O)c1cccc2nsnc12)N1CCC2(CC1)OCCO2 (configuration not stated),-3.3%,14.3%,14.5%,-1.9%,2.4%,3.6%&9.7%,7.2%,20.7%
COc1ccc(-c2cc(C3CCN(C(=O)OC(C)(C)C)CC3)[nH]n2)cc1,.,?,2.5%,-7.4%,.,?,-1.1%,?
O=C1CC[C@@H](OCc2ccccc2)CCN1CC[C@H](Sc1ccccc1)c1ccccc1,.,3.9%,-0.9%,-13.6%,.,.,1.4%,.
O=c1[nH]c(/C=C/c2cccc(Br)c2)nc2ccccc12,.,49.8%[activator],-10.4%,.,.,?,.,?
Cc1cccc(C(O)C(O)c2cccc(C)n2)n1 (configuration not stated),.,7.2%,13.0%,.,.,0.6%[46.1 µM],.,0.5%[46.1 µM]
ON=C1CCCC2CCCCC12 (configuration not stated),.,-8.4%,10.4%,.,.,-3.3%[46.1 µM],.,?
COc1ccc(OC)c(/C(O)=C/C(=O)C(=O)Nc2ccccc2OC)c1,-11.1%,13.6%,-10.1%,28.2%,-2.5%,-15.8%,12.9%,-11.5%
Cc1ccccc1NC(=O)c1cc([N+](=O)[O-])ccc1NCCN1C(=O)CCC1=O,.,-14.5%,-5.1%,-0.3%,.,?,0.6%,24.3%
O=C(CCCCn1c(=O)[nH]c2ccccc2c1=O)NCCc1c[nH]c2ccccc12,-4.3%,-22.1%,2.0%,-31.4%,-0.7%,-8.3%,-6.4%,-5.1%
CC(=O)OCc1cc2cccc(C)c2[nH]c1=O,-7.4%,-7.7%,-6.8%,-7.0%,-1.1%,-12.6%,0.8%,29.3%
O=C(Nc1ccccc1Cl)C1C2CCC3C(CCC21)C3(Cl)Cl (configuration not stated),?,-10.0%,-22.3%,7.5%,0.6%,7.4%,-7.3%,22.5%
CCCn1c(NCCO)nc2ccccc21,0.9%,.,-3.6%,-4.2%,2.0%,-0.3%,-0.5%,-0.3%
CCOc1cc(N2CCOCC2)c(OCC)cc1NC(=O)COC(=O)COc1cc(C)cc(C)c1,.,-5.5%,-4.1%,.,.,23.5%,-1.5%,?
O=C(NCN1CCN(c2ccccc2)CC1)c1cnccn1,.,-12.6%,0.7%,-3.3%,.,.,0.7%,.
O=C(Nc1ccccc1)c1ccccc1CC[N+](=O)[O-],-0.3%,-0.6%,-13.5%,7.3%,4.6%,2.9%,0.3%,-4.1%
CC(=O)c1ccc(OCC(O)CN2CCN(CC(O)COc3ccc(C(C)=O)cc3)CC2)cc1 (configuration not stated),7.1%,-25.9%,-10.3%,7.0%,-0.5%,?,-25.2%,1.4%
# Other structures
SMILES,Cruzain inh noDet,StopGo reporter,RE007 growth inh,NS1 inh,Cruzain Triton,Marburg entry inh,SARS PLP yeast,Lassa entry inh
NC(=O)c1ccc(NC(=O)COC(=O)CCCN2C(=O)c3cccc4cccc(c34)C2=O)cc1,-0.9%,6.6%,-0.4%,-9.6%,-17.2%,-3.9%,-4.5%,3.1%
Cc1ccc(-c2nnn(CC(=O)N(c3ccccc3)C(C(=O)NCC3CCCO3)c3ccc(Cl)cc3)n2)cc1 (configuration not stated),10.6%,-4.5%,-1.8%,15.1%,1.9%,-24.0%,0.9%,?
COc1ccc(CN2C(=O)CCC2(C)C(=O)NC2CCCC2)c(OC)c1 (configuration not stated),5.6%,-3.0%,5.3%,1.3%,2.6%,-22.9%,7.9%,-0.4%
Cc1nn(-c2ccccc2)c(Cl)c1C(=O)Nc1ccccc1,8.0%,-12.7%,-17.0%[3.69 µM],-12.3%,-1.2%,15.5%,-2.9%,34.3%
Cc1ccc(S(=O)(=O)c2nc(Nc3ccccc3C#N)sc2Cl)cc1,?,-0.1%,12.0%,-5.2%,-4.6%,0.9%,6.5%,-3.0%
Cc1onc(-c2ccccc2)c1C(=O)Nc1nc2c(s1)C(=O)CC(C)(C)C2,-19.2%,?,-7.7%,4.4%,-3.5%,?,-2.3%,0.5%
Cn1c(/C(C#N)=C(\O)c2ccc(S(=O)(=O)N3CCCCC3)cc2)nc2ccccc21,15.0%,?,1.3%,-7.3%,1.3%,.,-1.2%,.
Cc1ccc(NC(=O)C2CCC(CNS(=O)(=O)c3cccs3)CC2)cc1C (configuration not stated),-7.4%,?,.,.,-4.2%,.,.,-3.0%[46.1 µM]
CN1CCN(S(=O)(=O)c2cccc(C#N)c2)C(c2ccccc2)C1 (configuration not stated),.,-10.7%,3.9%,.,.,9.7%,4.3%,-11.9%
O=c1cc(N2CCOCC2)[nH]c(=O)n1-c1ccc(Br)cc1,-5.7%,-8.1%,10.6%,-2.8%,-0.7%,.,2.7%,.
